# Bioassay records as filed in PubChem.
# Mtb growth: Confirmatory growth inhibition assay against Mycobacterium tuberculosis H37Rv, potency (AID 1949) | one-dose inhibition, % at 10 µg/mL; IC50 in µg/mL for titrated hits | 100,000 compounds, 1.6% hits | most inactive calls were filed without a number and no value below 0 was filed;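 active = confirmed in a dose series; inconclusive = about 50% or more but not retested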;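 also: bacteria grown 7 days with compound before Alamar blue readout; 0% = untreated bacteria and 100% = reference antibiotic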
# * marks the source's active call; other numbers are inactive results; i = inactive; ? = inconclusive. An excerpt. The share of hits here may be higher or lower than overall.
SMILES,Mtb growth
O=C(Nc1cccnc1)c1cccc(NC(=O)c2ccco2)c1,i
Cc1cc(NS(=O)(=O)c2ccc(NC(=O)C3CC3c3ccccc3)cc2)nc(C)n1 (stereo not drawn),i
COc1ccc(CC(=O)NCc2nnc(SCC(=O)Nc3ccccc3)n2C)cc1,0.8%
CC(Oc1cccc(Cl)c1)C(=O)Nc1nncs1 (stereo not drawn),i
COC(=O)C(C(=O)Nc1ccc(OC)cc1)C1CCCCCC1 (stereo not drawn),i
COc1cc(CNC(C)c2ccccc2)cc(Cl)c1OCC(=O)NC(C)(C)C (stereo not drawn),i
O=C(O)CCc1ccc(-c2ccc(Cl)cc2)[nH]1,43.1%
COc1ccc(C(=O)Nc2ccc(NC(=O)c3ccccc3F)cc2)cc1,i
CCOC(=O)CN1C(=O)C(O)(CC(=O)c2ccc(Cl)s2)c2ccccc21 (stereo not drawn),i
CSc1cccc(NC(=O)CN(c2ccc(C)c(C)c2)S(=O)(=O)c2ccccc2)c1,i
CCCCc1ccc(NC(=O)c2ccc(CN(c3ccccc3)S(C)(=O)=O)cc2)cc1,i
CCN(CC)C(=O)c1sc(NC(=S)NNC(=S)NC2CCCCC2)c(C(=O)OC)c1C,i
C#CCOc1c(Br)cc(/C=C(/C#N)c2nc3ccc(OC)cc3[nH]2)cc1OC,i
COc1ccc(-n2c(SCCc3ccccc3)nnc2-c2ccncc2)cc1,2.8%
O=C(Nc1cc(Cl)ccc1Cl)c1ccc(OC(=O)c2ccco2)cc1,8.4%

# Structures listed so far with a furan ring, fused or not, in the order listed:
SMILES,Mtb growth
O=C(Nc1cccnc1)c1cccc(NC(=O)c2ccco2)c1,i
O=C(Nc1cc(Cl)ccc1Cl)c1ccc(OC(=O)c2ccco2)cc1,8.4%

# Pulled by structure from the entries so far:
SMILES,Mtb growth
COC(=O)C(C(=O)Nc1ccc(OC)cc1)C1CCCCCC1 (stereo not drawn),i
COc1cc(CNC(C)c2ccccc2)cc(Cl)c1OCC(=O)NC(C)(C)C (stereo not drawn),i
COc1ccc(CC(=O)NCc2nnc(SCC(=O)Nc3ccccc3)n2C)cc1,0.8%
O=C(Nc1cc(Cl)ccc1Cl)c1ccc(OC(=O)c2ccco2)cc1,8.4%

# Other records.
SMILES,Mtb growth
S=C(c1ccc(OCc2ccc(Cl)cc2)cc1)N1CCOCC1,1.8%
O=C(Nc1sc2c(c1C(=O)Nc1ccccc1)CCC2)c1cccc(Br)c1,42.8%
CCOc1ccccc1OCC(=O)Nc1ccc(S(=O)(=O)Nc2ccccn2)cc1,i
COc1ccccc1NC(=O)c1ccc(NC(=O)C(c2ccccc2)c2ccccc2)cc1,i
COc1ccc(CCNC(=S)NNC(=O)c2oc3ccccc3c2C)cc1OC,i
CCCNC(=O)C1CC(=O)N(c2ccc(OCC(=O)Nc3ccc(C)c(C)c3)cc2)C1 (stereo not drawn),i
COC(=O)C1c2ccccc2-c2ccccc21,0.1%
O=C(CSc1nc2ccccc2c(=O)n1-c1ccccc1)N1CCCc2ccccc21,0.3%
COc1ccc(-n2nc3ccc(NC(=S)NC(=O)c4cccnc4)cc3n2)cc1Cl,i
Cc1nn(-c2ccccc2)c2[nH]c(C(F)(F)F)cc(=O)c12,i
Cc1ccc(-n2c(SCC(=O)Nc3cc(Cl)ccc3C)nnc2-c2ccncc2)cc1,i
Cc1ccc(NC(=O)C(Cc2ccccc2)NC(=O)c2ccco2)cc1 (stereo not drawn),i
COc1ccc(COn2c(=O)c(C)[n+]([O-])c3ccccc32)cc1OC,i
Cc1ccc(C)c(OS(=O)(=O)c2ccc(Cl)cc2)c1,i
CCC(C)Nc1nc(N(C)C)nc(N(C)C#N)n1 (stereo not drawn),2.7%
O=C(Nc1cccc(Br)c1)C1CCN(C(=O)c2ccccc2Cl)CC1,i
Cn1c(=O)[nH]c2nnc(-c3ccccn3)nc2c1=O,i
CCc1c(O)nc(SCC(=O)Nc2cccc(C(=O)OC)c2)[nH]c1=O,i
CC(=O)N(c1nc(-c2cc3cc(Br)ccc3oc2=O)cs1)c1ccccc1F,i
COc1cc2ccccc2cc1C(=O)Nc1ccc(NC(=O)c2ccco2)c(Cl)c1,i
Cc1cccc(OCCOCCN2CCCc3ccccc32)c1,i
Cc1ccc2c(Cl)c(C(=O)Nc3nc(-c4ccc(F)cc4F)cs3)sc2c1,i
Cc1ccccc1OC(C)C(=O)Nc1ccc2c(c1)OCO2 (stereo not drawn),i
O=C(O)CCC(=O)NCC1OCCc2ccccc21 (stereo not drawn),i
CCC(=O)NC(c1ccccc1Cl)c1c(OC(C)=O)ccc2ccccc12 (stereo not drawn),4.4%
CCC(C)c1ccc(OCC(=O)Nc2ccc(-c3nc4ncccc4o3)cc2)cc1 (stereo not drawn),i
Cc1sc2nc(SCC(=O)Nc3ccccc3C(F)(F)F)nc(N)c2c1C,0.7%
CC(C)(C)NS(=O)(=O)c1ccc(NC(=O)Cc2ccc(Cl)cc2)cc1,i
COc1ccc(CNS(=O)(=O)c2ccc(OC)c(Cl)c2)cc1,i
COc1ccc(CCNC(=O)CCc2ccc(S(=O)(=O)Nc3ccc(C)cc3)cc2)cc1OC,i

# In a second layout: entries from further up.
Molecule	Mtb growth
Cc1ccccc1OC(C)C(=O)Nc1ccc2c(c1)OCO2 (stereo not drawn)	i
Cc1cccc(OCCOCCN2CCCc3ccccc32)c1	i
Cc1ccc2c(Cl)c(C(=O)Nc3nc(-c4ccc(F)cc4F)cs3)sc2c1	i

# More records:
SMILES,Mtb growth
CCN(CC)CCCN1C(=O)C(O)=C(C(=O)c2ccc(C)o2)C1c1ccncc1 (stereo not drawn),0.4%
CCC(Sc1nnc2sc3ccccc3n12)C(=O)OC (stereo not drawn),i
Cc1ccc(N(CC(=O)Nc2ccc(I)cc2C)S(C)(=O)=O)cc1C,i
Cc1ccc(S(=O)(=O)N2CCC(C)CC2)cc1-c1nnc2c3ccccc3c(C)nn12,4.3%
Cc1cc(F)ccc1NC(=O)c1cccnc1,i
Cn1nc(-c2ccc(OCC(=O)N3CCCC3)cc2)c2ccccc2c1=O,3.2%
CC(=O)c1ccc(COc2ccccc2Cl)cc1,i
CCOc1cccc(C(=O)Nc2ccc(NC(=O)c3ccco3)c(OC)c2)c1,i
COc1ccc(C(=O)Nc2ccncc2)cc1,i
Cc1ccc(C(=O)Nc2ccc(S(=O)(=O)N3CCCC3)cc2)cc1I,i
CC1=C(C(=O)OC(C)C)C(c2cccc(Br)c2)NC(=S)N1 (stereo not drawn),i
CN1CC(c2ccccc2)C(C(=O)c2ccccc2)C12C(=O)Nc1ccccc12 (stereo not drawn),5.1%
O=C(Nc1ccc(N2CCOCC2)cc1)c1ccc(S(=O)(=O)NCC2CCCO2)cc1 (stereo not drawn),1.2%
COc1cc(CN2CCC(C(=O)NC3CCCC3)CC2)ccc1OCc1ccccc1,i
CC(C)OC(=O)CSc1ncnc2sc3c(c12)CCCC3,i
O=C(Nc1ccc(I)cc1C(F)(F)F)c1cccnc1,i
CC(=O)c1cccc(NC(=O)CN(c2cccc(F)c2)S(C)(=O)=O)c1,i
CN(C)S(=O)(=O)c1cc(C(=O)O)c(NC2CCCCC2)cc1Cl,i
COC(=O)CN1C(=O)NC(c2ccccc2)(C(C)(C)C)C1=O (stereo not drawn),i
COc1ccc(C)cc1NC(=O)c1ccc(O)cc1,0.5%
CC1(C)CC(=O)C2=C(C1)NC1=C(C(=O)c3ccccc31)C2c1ccc(OC(=O)CN2C(=O)C3CCCCC3C2=O)cc1 (stereo not drawn),i
CN(C)S(=O)(=O)c1ccc(Cl)c(C(=O)NC2CCCCC2)c1,i
CN(CC(=O)Nc1ccc(Cl)cc1)S(=O)(=O)c1ccccc1,i
CC(=O)c1cccc(NC(=O)C2C(c3ccccc3)C2(Cl)Cl)c1 (stereo not drawn),1.6%
COc1ccc(C2(C(=O)Nc3ccc(Br)cc3)CCCC2)cc1,1.37µg/mL*
Cc1ccccc1Oc1ccc(S(=O)(=O)N2CC(C)OC(C)C2)cc1 (stereo not drawn),i
CCOc1ccc(C(=O)NC(=S)Nc2ccc(OC)cc2OC)cc1,i
COC(=O)c1sc2cc(NC(=S)Nc3ccn(C)n3)ccc2c1Cl,2.1%
COc1ccccc1OCC(=O)c1ccc(C)cc1,43.8%
Cc1cccc(OCCn2c(C(C)O)nc3ccccc32)c1 (stereo not drawn),i
CCCC(=O)NC(=S)Nc1sc(C)c(C)c1C#N,45.3%
COc1ccc(NC(=S)N2CCN(c3ccccn3)CC2)cc1OC,i
CCn1ncc(CN(C)C(=O)c2cnn3c(C(F)F)cc(-c4ccc(OC)cc4)nc23)c1C,i
CCc1ccc(OCC(=O)NC(=S)N2CCOCC2)c(Br)c1,i
Cn1cccc1CNCc1ccccc1,i
CC1(C)Nc2ccccc2N(CCC(=O)N2CCOCC2)C1=O,i
CC(C)(C)c1ccc(OCc2n[nH]c(=S)n2N)cc1,35.3%
CN(C)c1ccc(/C=C(/C#N)c2ccccc2F)cc1,21.4%
COC(=O)C1=CN(c2cc(C)cc(C)c2)C=C(C(=O)OC)C1c1cccc(F)c1,1.4%
Cc1ccc(NC(=O)Cc2cccs2)c(NC(=O)Cc2cccs2)c1,i
CCc1cccc(CC)c1NC(=O)CCCOc1cccc(C)c1,i
CC(=O)c1ccc(OC(=O)COc2ccc(-c3ccccc3)cc2)cc1,i
Cc1cc(C)cc(N/C(N)=N\c2nc(C)cc(C)n2)c1,?
Cc1cc(=O)c2cccc(Br)c2[nH]1,6.6%
CCN(C1CCCCC1)S(=O)(=O)c1cccc([N+](=O)[O-])c1,i
Cc1ccc(C(=O)N2CC(C)OC(C)C2)o1 (stereo not drawn),i
CCc1nnc(NC(=O)c2ccc3c4c(cccc24)CC3)s1,2.3%
O=C(Nc1ccc(F)cc1F)N1CCN(c2cccc(C(F)(F)F)c2)CC1,7.0%
COc1ccc(C)cc1NC(=O)COc1ccccc1Cl,11.7%
Cc1ccc(OCC(=O)NC2C3CC4CC(C3)CC2C4)c(C)c1 (stereo not drawn),42.2%
CCC(C(=O)Nc1ccc2c(c1)OCO2)c1ccccc1 (stereo not drawn),i
O=C(Nc1ccc([N+](=O)[O-])cc1)Nc1ccc(Cl)cc1F,30.4%
O=c1c2ccccc2cnn1Cc1n[nH]c(=S)n1-c1ccc2c(c1)OCO2,i
CS(=O)(=O)N(CC(=O)O)c1cccc(Cl)c1,i
COc1ccc(OC)c(NC(=O)COc2ccc(S(=O)(=O)NCCc3ccccc3)cc2)c1,i
Cc1nn(CC(=O)Nc2cccc(C(F)(F)F)c2)c(=O)c2ccccc12,i
COc1cc(S(=O)(=O)NCc2ccccn2)ccc1Br,i
O=C(c1cc(-c2ccccc2)on1)N1CCCCC1,3.2%
O=C(COc1ccc(S(=O)(=O)NC2CCCC2)cc1)N1CCN(c2cccc(Cl)c2)CC1,i
COc1ccccc1CNC(=O)C1CCN(S(=O)(=O)c2ccc(Cl)cc2)CC1,i

# Additional entries follow.
SMILES,Mtb growth
Cn1cc(/C=C/c2nc(-c3ccccc3O)n[nH]2)c2ccccc21,18.9%
CCc1cc2c3c(c1)C1(C(=O)N3C(C)(C)C=C2C)C(C#N)=C(N)Oc2[nH]c(=O)[nH]c(=O)c21 (stereo not drawn),24.6%
CCOC(=O)c1c(NC(=O)Cn2c(=O)oc3ccccc32)sc2c1CCCC2,i
Nc1ncnc(Nc2ccc(Oc3ccc(Cl)cc3)cc2)c1[N+](=O)[O-],2.3%
COc1ccc(C2NC(=O)CCC2[N+](=O)[O-])c(OC)c1 (stereo not drawn),i
CCOC(=O)c1ccc(NC(=O)CN(C2CCCCC2)S(=O)(=O)c2ccc(F)cc2)cc1,3.4%
CCc1nnc(NC(=O)CSc2nnc(C)s2)s1,i
O=C(COC(=O)c1ccccc1)c1ccccc1,i
O=C(NC(NC(=O)c1ccccc1F)c1ccc2c(c1)OCO2)c1ccccc1F,i
O=C(NCC1CCCO1)c1cc2sc3ccccc3c2s1 (stereo not drawn),36.9%
COc1ccccc1NC(=O)CSc1ccccc1NC(C)=O,i
O=C(NC(=S)Nc1nc(-c2ccccc2)cs1)c1ccc(Br)cc1,i
COc1ccccc1CN1C(=O)c2ccc([N+](=O)[O-])cc2C1=O,i
COC(=O)COc1ccc2c(-c3ccc(OC)cc3)cc(=O)oc2c1,0.86µg/mL*
O=C(NCc1ccco1)c1ccc(COc2cccc3ccccc23)o1,i
COc1cc(Cl)cc(C(=O)O)c1OCC(=O)O,i
Cc1cc(S(=O)(=O)N2CCCC2)ccc1OCC(=O)N1CCOCC1,i
Cc1cc(C)cc(OC(=O)c2c(F)c(F)c(F)c(F)c2F)c1,i
O=C(Nc1cccc2ccccc12)N1CCN(c2ccccn2)CC1,i
CCOC(=O)C1=C(C)N=c2s/c(=C\c3ccc(OCc4cccc5ccccc45)c(OC)c3)c(=O)n2C1c1ccc(C)cc1 (stereo not drawn),i
CCCCNS(=O)(=O)c1ccc(NC(=O)CCC2CCCCC2)cc1,i
CCOC(=O)c1sc(NC(=S)N2CCC3(CC2)OCCO3)c(C(=O)OCC)c1C,i
CCc1ccc(OCC(=O)Nc2ccc(Cl)c(Br)c2)cc1,45.5%
COC(=O)c1cc(OC)c(OC)cc1NC(=O)Nc1ccccc1F,i
COc1ccc([N+](=O)[O-])cc1NC(=O)c1cc2ccccc2oc1=O,i
CCOc1ccc(NC(=O)Cn2cnc3c(=O)n(C)c(=O)n(C)c32)cc1,i
O=C(CC12CC3CC(CC(C3)C1)C2)NC1C2CC3CC(C2)CC1C3 (stereo not drawn),3.4%
COc1ccc(-c2csc(-c3ccccc3)n2)cc1,i
